High-throughput results from PubChem.
HCMV UL50-53 inh: cytomegalovirus nuclear egress complex inhibition; HTRF UL50-UL53 interaction, normalized percent inhibition; inhibition, % (concentration not given with the values); hit rate 0.15% among 190,000;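 active means both replicates at 50% or more, plus weaker picks with an unusually low signal ratio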;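 further: stock transfer was 100 nL into about 20 µL; 0% = negative control wells and 100% = wells with untagged competitor protein; inactives centre near -12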
GIV Gai3 FP: blocks GIV peptide binding to rat Galpha-i3. P08753. Galpha-i3/FITC-GIV peptide fluorescence polarization, 90 min; active compounds read low; scaled: aluminum fluoride 0%, vehicle 100%. percent of control (FP), % (no concentration beside the values). hit rate 0.42% among 210,000;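 active means replicate mean at 85% of control or lower, very high polarization wells dropped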;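 further: wells of about 15 µL received 100 nL stock; the first replicate is given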
Target sequence (P08753 whole entry, looked up): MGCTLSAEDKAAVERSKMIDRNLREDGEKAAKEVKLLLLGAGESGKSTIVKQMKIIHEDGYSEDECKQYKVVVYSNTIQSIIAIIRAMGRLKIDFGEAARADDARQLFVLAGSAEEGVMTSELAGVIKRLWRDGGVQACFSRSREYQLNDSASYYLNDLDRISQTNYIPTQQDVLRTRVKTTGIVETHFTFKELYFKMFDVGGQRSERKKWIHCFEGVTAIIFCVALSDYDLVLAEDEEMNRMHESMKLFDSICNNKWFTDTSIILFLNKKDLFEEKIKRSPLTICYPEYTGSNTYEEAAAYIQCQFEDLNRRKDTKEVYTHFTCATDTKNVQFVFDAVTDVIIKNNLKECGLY
Sa growth 42C: blocks Staphylococcus aureus growth. S. aureus RN4220 growth, OD600, 20 h, 42 °C; active compounds read low. relative growth, % (test concentration not listed). hit rate 0.53% among 170,000. AID 720641;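 active means growth at 42 °C up to 50% and 20 or more points under that at 30 °C, or under 10% at both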;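 further: 300 nL library stock went into each well; scaled to the means of positive and negative controls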
Sa growth 42C second temp: also measured in Sa growth 42C; calls as there; relative growth, %; measured here: growth at 30 °C;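 optical density after 20 h as mean of two plates; 100% = untreated growth and lower means inhibition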
* = called active by the depositor; x = no result given; & = joins results of further samples.

SMILES	HCMV UL50-53 inh	GIV Gai3 FP	Sa growth 42C	Sa growth 42C second temp
COc1ccc(N2CCN(C(=O)CS(=O)(=O)c3cccc4nsnc34)CC2)cc1	x	105	90	98
COc1ccc(CNC(=O)Cc2c(C(=O)O)c(C)cn2C)cc1	x	107	100	89
O=C(Nc1cc(-c2cccs2)nn1-c1ccc(I)cc1)C1CCC1	-30	108	93	89
Cc1ccc(Cn2cc(CCC(=O)N3CCc4ccccc43)c3ccccc32)cc1	x	106	97	91
Cc1cc(C#N)c(SCC(N)=O)nc1-c1ccc(F)cc1	-27	101	87	84
O=C(O)CCn1c(=O)c2cccn2c2cccnc21	-29	107	103	84
COc1cc(OC)c(NC(=O)N2CCc3cc(S(=O)(=O)N4CCC(C)CC4)ccc32)cc1Cl	-22&-24	102&109	104	89
O=S1(=O)CC(S(=O)(=O)c2cccs2)c2ccccc21 (stereo not given)	-1	108	91	84
CN(C)c1nc2nonc2nc1Nc1cccc(Br)c1	-35	105	x	x
COC(=O)c1sc(N)c(C(=O)OC)c1COC(=O)c1c(C)noc1C	5	x	99	101
CCOC(=O)c1ccc2oc(=O)[nH]c2c1	-1	99	x	x
COc1ccc(NC(=O)c2cc(C3CC3)nc3c2c(C)nn3-c2ccc(C)cc2)cc1OC	x	108	108	98
CCOC(=O)c1c(C)sc(-c2c(-c3ccc4c(c3)OCCO4)[nH]c3c2c(=O)n(C)c(=O)n3C)c1O	23	262	113	89
Cc1sc2c(c1C)c(=O)[nH]c1nnc(Nc3ccccc3)n12	-28	x	83	85
CC(C)(CC(=O)O)CC(=O)N1CCN(c2cc(C(F)(F)F)nc3ccccc23)CC1	-19	100	122	97
Cn1c2ccc(F)cc2c2nnc(NN)nc21	x	106	100	88
O=C(COc1ccccc1)Nc1ccc(OCc2cc(=O)n3[nH]cnc3n2)cc1	-16	104	x	x
O=C(OCC(=O)N1CCCc2ccccc21)c1cc2ccccc2oc1=O	-33	x	105	99
COc1c(C(=O)NCCOc2ccccc2)ccc2ccccc12	-2	x	74	91
CN(C)S(=O)(=O)Nc1ccc(N2CCN(CC(=O)N3CCCC3)CC2)c(C(=O)O)c1	-27	104	x	x

By substructure: the entries above containing two or more sulfur atoms.
SMILES	HCMV UL50-53 inh	GIV Gai3 FP	Sa growth 42C	Sa growth 42C second temp
COc1ccc(N2CCN(C(=O)CS(=O)(=O)c3cccc4nsnc34)CC2)cc1	x	105	90	98
O=S1(=O)CC(S(=O)(=O)c2cccs2)c2ccccc21 (stereo not given)	-1	108	91	84

Other results.
SMILES	HCMV UL50-53 inh	GIV Gai3 FP	Sa growth 42C	Sa growth 42C second temp
CCOC(=S)Nc1cccc(C(F)(F)F)c1	8	x	102	94
Cc1ccc(CNC(=O)CN(c2cc(C)cc(C)c2)S(=O)(=O)c2c(C)[nH]c(=O)[nH]c2=O)cc1	-26	101	109	88
Cc1ccc(S(=O)(=O)CC(=O)Nc2sc3c(c2C(N)=O)CCCC3)cc1	x	98&101	140	102
CC1SCC(=O)N(CC(=O)NCc2ccc(F)cc2)C1=O (stereo not given)	-17	95	93	89
COCCn1c(SCC(=O)c2c[nH]c3ccccc23)nc2cc(C(=O)NCC(C)C)ccc2c1=O	x	117	85	93
COC(=O)c1cc(S(=O)(=O)N2CCCC2C(=O)Nc2ccc(OC)c(OC)c2)cn1C (stereo not given)	11	111	x	x
Cc1cc(=O)[nH]c(-c2ccc(C(N)=O)cc2)n1	-8	99	111	84
N#Cc1c(N2CCSCC2)nsc1-c1ccccc1Cl	-7	101	93	69
Cc1ccc(C(=O)/C(=C/N(C)C)Sc2ccc(C(F)(F)F)cn2)cc1	-32	98	90	91
Fc1ccc(-c2cc3ncc4c(n3n2)-c2ccccc2OC4)cc1	-32	96	x	x
Fc1ccc(C(Nc2ccc(Cl)c(C(F)(F)F)c2)c2nnc(-c3ccccc3)o2)cc1 (stereo not given)	x	101	67	91
O=C(CCC(=O)c1cccs1)OC1CCOC1=O (stereo not given)	4	x	95	98
O=C(CSc1nc2sc3c(c2c(=O)[nH]1)CCCC3)NCc1cccs1	-24	100	97	87
Cc1cc2nc(SCC(=O)NCCN3CCCCC3)[nH]c2cc1C	0	102	103	91
Cc1ccc(C(=O)Nc2ccc3oc(-c4cccnc4)nc3c2)c(Cl)c1	-18	103	99	87
O=C(CSc1nnc(-c2ccc3c(c2)OCO3)o1)N1CCc2ccccc21	4	x	111	88
CCn1c(=O)c(N2CCN(C(=O)c3ccccc3Br)CC2)nc2ccccc21	-42	102	x	x
CCN(C(=O)CSc1ccc(NC(C)=O)cc1)C1CCS(=O)(=O)C1 (stereo not given)	-5	x	96	103
CCCN1CCC(NC(=O)c2ccc(F)cc2Cl)CC1	-32	106	102	101
O=C(Nc1ccccc1Br)N1CCN(c2ccc(-c3noc(C4CCC4)n3)cc2)CC1	-34	108	x	x
COc1ccc(Oc2ccccc2OC)cc1	-10	98	106	98
COc1ccc(-c2csc(Nc3c(C)n[nH]c3C)n2)cc1	3	116	104	97
COc1ccc(-n2c(SCC(=O)N3CCCc4ccccc43)nc3c([nH]c4ccccc43)c2=O)cc1	x	101	103	87
COCCCn1c(-c2cccc(OC)c2)nc2nc3ccccc3nc21	-90	104	87	77
O=C(CCC1(C(=O)O)CCC(=O)NC1)NCc1ccccc1 (stereo not given)	-43	x	112	87
O=C(Cn1cnc2c(nc3n2CCCCC3)c1=O)N1CCN(c2ccc(F)cc2)CC1	6	103	x	x
CN(C)CCCNCc1ccccn1	-2	95	96	100
CCOC(=O)c1c(C)n(-c2ccc(OC)cc2)c2cc(Br)c(OC)cc12	13	105	x	x
COc1ccc(-n2c(C)cc3cc(OC(C)=O)ccc32)cc1	-5	100	91	62
O=C(Nc1ccc(-c2nc3c(ccc4ccccc43)o2)cc1)c1ccco1	x	96	73	69
Cc1ccc(NC(=O)c2cc(-c3ccco3)on2)cc1	-7	97	93	82
CN(C)S(=O)(=O)c1cccc(C(=O)O)c1	-29	106	98	109
O=C(COC(=O)c1ccccc1Cl)Nc1nccs1	10	104	90	104
O=c1[nH]c(SC/C=C/c2ccccc2)nc2c1cnn2CCO	-9	100	x	x
CNC(=S)N1CCN(S(=O)(=O)c2ccc3ccccc3c2)CC1	-22	x	106	85
Cc1ccc(Cn2ccn(Cc3ccccc3C)c(=O)c2=O)cc1	-2	103	107	93
CCN1C(=O)CSc2ccc(C(=O)OC)cc21	-10	103&98	101	91
O=C(O)c1ccc([N+](=O)[O-])c2c1NC(c1ccc([N+](=O)[O-])cc1)C1CC=CC21 (stereo not given)	-41	103	x	x
O=C(NCC(=O)N1CCc2ccccc2C1)c1ccccc1Cl	5	x	90	91
CCC/C=C(\CC)C[N+]1(C)CCCCC1	-18	x	112	84
O=C(NC(=S)NC1CC1)c1cccnc1	-12	97	99	87
CCOC(=O)C(C)Oc1ccc(C#N)cc1OC (stereo not given)	-17	105	108	107
COc1cc(NC(=O)c2nc(Nc3ccccc3)c3ccccc3n2)cc(OC)c1	-26	104	x	x
Cc1ccc(NC(=O)C2CCCN2S(=O)(=O)c2cccc3cccnc23)cc1C (stereo not given)	-23	100	99	82
Cc1c(N2C(=O)CSC2c2ccc([N+](=O)[O-])cc2)c(=O)n(-c2ccccc2)n1C (stereo not given)	-56	108	x	x
COc1ccc(C2c3c(n(C)c4ccccc34)C(=O)N2CC(=O)Nc2ccc(F)cc2)cc1 (stereo not given)	x	106	91	98
Cc1ccc(Cn2c(=S)[nH]c3ccccc32)cc1	-8	x	121	97
CN(Cc1ccccc1)C(=O)CCc1nc(CN2CCN(S(=O)(=O)c3ccc(C(C)(C)C)cc3)CC2)no1	-4	105	x	x
C=Cc1ccc(Cn2nc(C)c3c(C)onc3c2=O)cc1	-11	111	x	x
O=C(CS)Nc1nc2c3ccccc3ncn2n1	-25	x	90	89
O=C(O)C1=NN(c2ccccc2)C(=O)/C1=C/c1cccs1	x	106	89	84
Cc1ccc(CNC(=O)c2ccc(Cn3c(=O)c4ccccc4n(CC(=O)Nc4ccc(C)cc4C)c3=O)cc2)cc1	-8	104	115	89
CC1(C)C(=O)NN(c2ccc(Br)cc2)C1=O	-35	98	x	x
O=C(NCCOc1ccc(Cl)cc1)c1ccccc1Cl	-19	x	103	84
O=C1CC(c2ccccc2)N(c2ccc(Cl)cc2Cl)C(=S)N1 (stereo not given)	-28	97	95	87
C=CCn1c(/N=C/c2ccc(OCCC(C)C)cc2)nc2ccccc21	x	101	81	78
COc1ccc2c(c1)-c1nc(NC(=O)c3cccc(Br)c3)sc1CC2	-18	109	95	89
CCCC(O)c1nc2ccccc2n1CCCCOc1ccc(OC)cc1 (stereo not given)	-15	99	82	82
NS(=O)(=O)c1ccc(CCNC(=O)Cn2cnc3c([nH]c4ccccc43)c2=O)cc1	-16	101	x	x
CCC(=O)Nc1nnc(SCCOC)s1	0	101	105	72

Part of the list above in order of length of the SMILES, ascending:
SMILES	HCMV UL50-53 inh	GIV Gai3 FP	Sa growth 42C	Sa growth 42C second temp
CCOC(=O)C(C)Oc1ccc(C#N)cc1OC (stereo not given)	-17	105	108	107
CCCC(O)c1nc2ccccc2n1CCCCOc1ccc(OC)cc1 (stereo not given)	-15	99	82	82
NS(=O)(=O)c1ccc(CCNC(=O)Cn2cnc3c([nH]c4ccccc43)c2=O)cc1	-16	101	x	x

The list goes on.
SMILES	HCMV UL50-53 inh	GIV Gai3 FP	Sa growth 42C	Sa growth 42C second temp
O=C1NC2=C(C(=O)c3ccccc32)C(c2ccc(Cl)cc2)S1 (stereo not given)	-26	x	71	26
O=C1CC(Cc2ccccc2)(c2ccccc2)C(=O)N1 (stereo not given)	-17	101	106	93
c1ccc(-c2ccc(SCc3nc(-c4ccccc4)no3)nn2)cc1	14	111	x	x
CCN1CCCC1CNCc1cc(=O)n2ccc(C)cc2n1 (stereo not given)	5	x	105	93
CCn1c2ccccc2c2nnc(SCC(=O)Nc3ccccc3OC)nc21	x	98	79	92
CCOC(=O)C(C)Oc1ccc2oc(=O)cc(C)c2c1 (stereo not given)	-11	x	95	80
O=C1CSCC(=O)N1c1cccnc1	-36	102	98	87
CCOC(=O)c1sc(-c2ccccc2)cc1NC(=O)COC(=O)COc1cc(C)on1	-2	x	94	101
Cc1cccc(Nc2ccccc2C(=O)OC(C)C(=O)N2CCN(C(=O)c3ccco3)CC2)c1C (stereo not given)	5	x	90	97
O=C(O)CCCNc1cc(N2CCN(C3CCCCC3)CC2)c2noc3c2c1C(=O)c1ccccc1-3	-124	130	122	91
COC(=O)c1ccc(N=C2SC(C(=O)O)CC(=O)N2C)cc1 (stereo not given)	-12	x	93	88
CSC1CCCCC1(O)CSc1nc2ccccc2o1 (stereo not given)	-3	102	99	100
CCOc1ccc(NC(=O)CSc2oc(-c3cccs3)nc2S(=O)(=O)c2ccc(C)cc2)cc1	-4	108	90	106
O=C(c1csc(S(=O)(=O)N2CCC(C(=O)N3CCCCC3)CC2)c1)N1CCOCC1	-15	108	x	x
COc1ccc(CNC(=O)CN(C)S(=O)(=O)c2ccc3c(c2)c(=O)n(C)c(=O)n3C)cc1	26	107	105	106
COc1ccc2nc(Cl)c(CN(Cc3ccc(F)cc3)C(=O)c3ccco3)cc2c1	-14	104	95	100
CCOC(=O)c1[nH]c2ccc(F)cc2c1NC(C)=O	-9	102	x	x
Cc1ccc(-c2cc3ncc(C(=O)c4ccccc4O)cn3n2)cc1	-10	96	x	x
Cc1ccc2oc(=O)c3cc(C(=O)NCCc4ccc(Cl)cc4)sc3c2c1	-35	98	102	90
CN(CC(=O)Nc1ccccc1SCC#N)Cc1ccc(-c2ccc(Br)cc2)o1	-13	x	115	69
COc1ccc(C(CNC(=O)c2oc3ccc(Cl)cc3c2C)N2CCCCC2)cc1 (stereo not given)	-5	106	84	92
CCOC(=O)c1cc(C(=O)OC)c(C)nc1N1CCC(NC2CCCCC2O)CC1 (stereo not given)	-6	128	117	95
CC1CCCN(Cc2nnc(-c3ccccc3)o2)C1 (stereo not given)	-13	102	x	x
Cc1ccc(-c2noc(-c3ccccc3NC(=O)C3CC(=O)N(c4cccc(C)c4)C3)n2)cc1 (stereo not given)	6	98	72	97
Cc1nc(-c2cccs2)sc1-c1ccn[nH]1	-28	107	116	45
Cn1c(=O)n(C)c2cc(N3CCCCC3)c(NS(C)(=O)=O)cc21	-26	105	81	88
O=C1CSC(=O)N1CC(O)COc1cccc2ccccc12 (stereo not given)	-21	x	111	88
CN(C)c1ccc(-n2nnnc2SCc2ccc(Cl)cc2)cc1	-11	94	100	98

Full records as entered above. Order of screens: HCMV UL50-53 inh, GIV Gai3 FP, Sa growth 42C, Sa growth 42C second temp
Record of Cc1ccc(-c2noc(-c3ccccc3NC(=O)C3CC(=O)N(c4cccc(C)c4)C3)n2)cc1 (stereo not given) → 6, 98, 72, 97
Record of CN(C)c1ccc(-n2nnnc2SCc2ccc(Cl)cc2)cc1 → -11, 94, 100, 98
Record of CCOC(=O)c1cc(C(=O)OC)c(C)nc1N1CCC(NC2CCCCC2O)CC1 (stereo not given) → -6, 128, 117, 95
Record of CC1CCCN(Cc2nnc(-c3ccccc3)o2)C1 (stereo not given) → -13, 102, x, x
Record of COc1ccc(C(CNC(=O)c2oc3ccc(Cl)cc3c2C)N2CCCCC2)cc1 (stereo not given) → -5, 106, 84, 92
